Screens from PubChem.
CBX7 inh: CBX7 inhibition, primary AlphaScreen. O95931. AlphaScreen His6-CBX7 / biotin-H3K27me3 peptide binding; hits give low values. normalised signal (fraction of DMSO) (test concentration not listed). 1.1% of 66,000 active; in the data active = normalised signal below about 0.5;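 note: 100 nL library stock added to about 20 µL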
Target sequence (O95931 whole entry, looked up): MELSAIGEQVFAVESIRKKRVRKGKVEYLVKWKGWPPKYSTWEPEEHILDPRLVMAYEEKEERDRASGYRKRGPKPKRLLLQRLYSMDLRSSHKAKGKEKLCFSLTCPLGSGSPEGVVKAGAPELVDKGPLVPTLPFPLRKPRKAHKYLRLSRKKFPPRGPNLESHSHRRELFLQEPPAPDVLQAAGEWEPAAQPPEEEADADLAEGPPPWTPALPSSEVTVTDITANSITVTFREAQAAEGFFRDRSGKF
CBX7 inh z-score: second read-out of CBX7 inh, no call of its own (marks repeat the call); z-score; measured here: z-score of CBX7 signal; some inactives read as strong as hits; reference of the scale not given here;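 same signal on another scale; lower means less binding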
The depositor's hits bear a star; & = joins results of further samples. An excerpt; count on the stated rates, not on these rows.

Sample of the layout, 2 compounds:
Compound,CBX7 inh,CBX7 inh z-score
COc1ccc(-c2nc(-c3cccs3)c(-c3cccs3)[nH]2)cc1OC,0.45*,-0.55*
O=C1CN(C(=O)c2ccccc2C(F)(F)F)C(c2ccc(F)cc2)c2cc(F)ccc2N1 (configuration not stated),1.1,0.36

Results, from the first entry:
Compound,CBX7 inh,CBX7 inh z-score
COc1ccc(-c2nc(-c3cccs3)c(-c3cccs3)[nH]2)cc1OC,0.45*,-0.55*
O=C1CN(C(=O)c2ccccc2C(F)(F)F)C(c2ccc(F)cc2)c2cc(F)ccc2N1 (configuration not stated),1.1,0.36
CCC(=O)NCCc1cc2ccc(C)cc2[nH]c1=O,1,0.61
O=S(=O)(c1ccccc1)c1nc(-c2cccc(Cl)c2)oc1N1CCOCC1,0.69,-2.9
Cc1cc(C)c(NC(=O)c2cnn(-c3ccccc3)c2C2CCN(C(=O)OC(C)(C)C)CC2)c(C)c1,0.99,-0.48
CCc1nc2ccc(C(=O)NC(C)CC)cc2nc1CC (configuration not stated),0.95,-0.68
CC(C)OCCCNC(=O)C1CCN(C(=O)c2cnn(-c3ccccc3)c2-n2cccc2)CC1,1.3,1.9
CC1CC(C)CN(C(=O)CSc2nnc(-c3ccccc3F)o2)C1 (configuration not stated),1.2,2.6
Cc1ccc(-c2noc(CCC(=O)N3CCN(c4ccc(F)cc4)CC3)n2)cc1,1.1,0.1
O=C1CCc2cc(S(=O)(=O)N3CCC(C(=O)Nc4ccc(Cl)cn4)CC3)ccc2N1,0.95,-0.77
CN(C)CC(=O)Nc1c2c(nc3c1CCC3)CCCC2,0.23*,-10*
CC(Nc1ncnc2ccccc12)C(=O)O (configuration not stated),1,0.61
COc1cccc(NC(=O)c2sc3ncn(CC(=O)N4CCC(C)CC4)c(=O)c3c2C)c1,1.1,1
CCOCCCNC(=O)c1cnn2c(C(F)(F)F)cc(-c3ccccc3)nc12,1.1,4.6
COc1ccc(-c2nc3cc(NC(=O)c4cccc(OCc5ccccc5)c4)ccc3o2)cc1Cl,1,0.3
COc1ccc(CCNC(=O)C2c3ccccc3C(=O)N2Cc2ccccc2Cl)cc1OC (configuration not stated),0.83,-2
CC(C)NC(=O)c1ccc2c(c1)N(Cc1ccccc1)C(=O)CS2,0.98,-0.08
O=C(NCc1ccccc1)c1cc2n(n1)C(C(F)(F)F)CC(c1ccccc1)N2 (configuration not stated),1,1.9
COc1ccc(Cl)cc1N1CC(c2nc3ccccc3n2Cc2ccccc2F)CC1=O (configuration not stated),0.94,-1.2
Cc1sc2ncnc(Nc3ccc(Oc4ccccc4)cc3)c2c1S(=O)(=O)N1CCC(C)CC1,0.99,-0.19
CCCNC(=O)c1ccc2c(c1)nc(C)n2-c1cccc(Cl)c1,0.91,-0.085
O=C(Cc1ccc(Cl)cc1)Nc1cccc(-c2nc3ccccc3o2)c1,1,0.029
O=C(NCc1cccnc1)c1ccc2nc(N3CCOCC3)sc2c1,1.2,1.7
COc1ccc(CNc2ccc3c(c2)ncn3-c2ccc(C)cc2)cc1,0.27*,-3.4*
CCC1Oc2ccccc2N(CC(=O)NCCCN2CCC(C)CC2)C1=O (configuration not stated),0.97,-0.98
O=C1Nc2cc(C(=O)N3CCOCC3)ccc2SC1N1CCN(c2ccc(Cl)cc2)CC1 (configuration not stated),1,-0.1
O=C(Nc1sc2c(c1C(=O)N1CCCCC1)CCC2)c1ccccc1Cl,0.93,-0.75
O=C(Nc1ccc2c(c1)OCO2)c1cccc2c1C(=O)N(Cc1cccnc1)C2,0.64,-3
Cc1cc(Br)ccc1NC(=O)c1cc2c(s1)-c1ccccc1OC2,1.5,13
c1ccc(Nc2c(-c3c[nH]c4ccccc34)nc3ccccn23)cc1,0.83,-1.6
N=c1n(CCN2CCOCC2)c2ccccc2n1CC(O)COc1ccccc1 (configuration not stated),1.1,1.7
Cc1nc2ccc(S(=O)(=O)N(C)CC(=O)Nc3ccc(F)cc3F)cc2s1,1.3,1.5
NC(=O)CSc1nc2ccccc2n1Cc1ccccc1F,1,0.16
Cc1cc(NC(=O)c2cc3ccccc3oc2=O)c2ccccc2n1,0.9,-1.6
CCC(CO)NCC(O)COCc1ccc(Cl)cc1 (configuration not stated),1.1,0.82
CCN(CC)S(=O)(=O)c1ccc(C(=O)Nc2c3c(nn2-c2cccc(C)c2)CSC3)cc1,0.96,-1
Cc1ccc(Nc2nnc(-c3ccc(C)c(S(=O)(=O)NCc4ccccn4)c3)c3ccccc23)cc1,1.2,2.6
CCOCCCNC(=O)CCN1C(=O)C(C)Oc2ccc(C)cc21 (configuration not stated),1,-0.0069
Cc1cc(N2CCCCC2)nc2ccc(NC(=O)CCC(=O)N3CCOCC3)cc12,1.2,3.2
O=C(Cn1ncc2ccsc2c1=O)NCCCN1CCOCC1,1,1.1
Cc1c(Cl)cccc1NC(=O)CC1Oc2ccccc2NC1=O (configuration not stated),0.97,-0.56
O=C(c1cccc(F)c1)N1CCN(Cc2ccccn2)CC1,1.1,2.7
c1ccc(-c2nnc3sc(-c4cnccn4)nn23)cc1,1,1.5
COc1ccc(Cl)cc1Nc1cc(C)nc2ncnn12,0.94,-2
Cc1ccccc1-c1nc(C(=O)NCc2ccc3c(c2)OCO3)c(C)o1,0.83,-3
O=C(Nc1cccc(C(F)(F)F)c1)N1CCN(c2ccccn2)CC1,0.96,-0.76
O=C(NCc1ccc2c(c1)OCO2)C1CCN(c2nc3ccccc3o2)CC1,1.1,0.071
O=C(CCC1=NS(=O)(=O)c2ccccc2N1)N1CCN(Cc2ccc3c(c2)OCO3)CC1,1,0.98
O=C1CSC(c2cn(-c3ccccc3)nc2-c2ccc(Cl)cc2)N1Cc1ccco1 (configuration not stated),0.96,-0.43
CCOC(CN1C(=O)Cn2cccc2C1C(=O)NC1CCCCC1C)OCC (configuration not stated),0.9,-1.8
CC1CCN(S(=O)(=O)c2ccc3[nH]c(=O)cc(C(=O)NCc4ccc5c(c4)OCO5)c3c2)CC1,1.1,1.3
CCC(C)NC(=O)Cn1ncc2c1-c1ccccc1OC2 (configuration not stated),0.97,-0.39
Cc1cn(-c2nc(-c3ccccc3)oc2-c2ccccc2)c(=O)nc1N1CCCCC1,0.91&0.98,-3.5&-0.66
COc1ccccc1CNC(=O)C1c2cc(OC)c(OC)cc2C(=O)N(C)C1c1ccccc1F (configuration not stated),1,0.51
COc1ccc(-n2nc3ccc(NC(=O)COc4ccc(C)c(C)c4)cc3n2)cc1,0.9,-1.3
CCC(C)C(NC(=O)C1CCC(C)CC1)C(=O)NC1CCN(Cc2ccccc2)CC1 (configuration not stated),1,0.74
CCc1ccc2nc(N3CCC(C(=O)NCCCN4CCOCC4)CC3)sc2c1,1.1,1.3
O=C(c1ccccc1F)N1CCCC(c2ccccc2)C1 (configuration not stated),0.95,-0.97
COc1ccc2nc(SCC(=O)Nc3ccc(OC(F)(F)F)cc3)[nH]c2c1,0.91,-0.83
COc1ccc(S(=O)(=O)N(CC(=O)N2CCCCC2)c2ccc(C)cc2)cc1,0.97,-0.69

Profiles as entered above:
c1ccc(-c2nnc3sc(-c4cnccn4)nn23)cc1 is entered as CBX7 inh: 1; CBX7 inh z-score: 1.5
NC(=O)CSc1nc2ccccc2n1Cc1ccccc1F is entered as CBX7 inh: 1; CBX7 inh z-score: 0.16

(cont.)
Compound,CBX7 inh,CBX7 inh z-score
FC(F)(F)c1cc(-c2cccs2)nc2c(-c3ccccc3)cnn12,0.8,-3.7
Cc1ccc(C(=O)N2CCN(c3ccc(N4CCOCC4)nn3)CC2)cc1,1.1,0.76
COCc1cc(C)nc(SCc2ccccc2)c1C#N,1.4,3.7
CCC1=Nc2cc(C(=O)N3CC(C)CC(C)C3)ccc2Sc2ccccc21 (configuration not stated),0.82,-2.2
CCOC(=O)c1c(NC(=O)c2ccc(OC)c(OC)c2)sc2c1CCCCC2,1.4,5.6
CCOc1cc2c(cc1OCC)C1C(C(=O)NCCCOC)c3ccccc3C(=O)N1CC2 (configuration not stated),1.2,1.2
Cc1nc(NCCc2ccc3c(c2)OCCO3)c2cc(-c3ccccc3)sc2n1,0.36*,-7.2*
CCCCNC(=O)c1cc2c(n(-c3ccc(C)cc3)c1=O)CCCC2=O,0.99,-0.14
Cc1cc2c(cc1C)NC(CC(=O)Nc1ccccc1C(F)(F)F)C(=O)N2 (configuration not stated),1,0.25
CCN(C(=O)Cn1nc(Cc2cccnc2)c2ccccc2c1=O)c1ccc(OC)cc1,0.95,-1.5
CCS(=O)(=O)c1ccc(O)c(NC(=O)c2cccs2)c1,0.99,-0.31
CC1CCN(S(=O)(=O)c2ccc3c(c2)N(CC(=O)N2CCCC2)C(=O)CO3)CC1,1,0.038
COc1ccc(NC(=O)Cn2cc(S(=O)(=O)c3ccc(C)cc3)c(=O)c3cc(C)ccc32)cc1,0.79,-3
COc1ccc(-c2cc3nc(C)c(CCC(=O)Nc4ccc(F)c(Cl)c4)c(C)n3n2)c(OC)c1,1,0.25
O=c1[nH]cnc2ccc(S(=O)(=O)N3CCOCC3)cc12,1.1,0.42
COc1ccc(CCNC(=O)c2cc3oc(C)cc3n2Cc2ccc(Cl)cc2)cc1OC,0.78,-6.1
COC(=O)c1ccc(C2NCCc3cc(OC)c(OC)cc32)cc1 (configuration not stated),0.97,-0.36
Cc1ccc(Cl)cc1N1CCN(C(=O)Cc2c(C(=O)O)[nH]c3ccc(Cl)cc23)CC1,1.1,1.1
Cc1ccc(C(=O)N2CC(=O)Nc3ccc(Br)cc3C2c2ccc(F)cc2)cc1 (configuration not stated),0.62,-7
CCOc1ccc(Nc2nc3ccccc3nc2NS(=O)(=O)c2ccc(C)cc2)cc1,0.58,-7.7
CCC(C)NC(=O)c1ccc2c(=O)n3c(nc2c1)CCCCC3 (configuration not stated),1,0.92
Cc1ccc(-c2nnc(Nc3ccc4c(c3)ncn4C)c3ccccc23)cc1,0.58,-7.9
CCOc1ccc(-n2cc(-c3ccc(OCC)c(Cl)c3)[nH]c2=O)cc1,0.88,-2.7
COc1ccccc1OCC(=O)Nc1c(C(=O)c2ccc(C)cc2)oc2ccccc12,1.1,0.24
CCc1ccccc1NS(=O)(=O)c1ccc2[nH]cc(C(=O)NCCOC)c(=O)c2c1,0.85,-1.9
CCc1nc(NCCN(CC)CC)c(C#N)c2c1CCCC2,0.99,-0.24
Cc1ccc(Nc2c(-c3ccsc3)nc3c(C)cccn23)cc1,0.91,-2.3
Clc1ccc(CNc2ccc3nncn3n2)cc1,0.99,-0.23
CCCCNC(=O)c1cn(C2CCCC2)c(=O)c2c1c1ccccc1n2C,1.1,3.3
Fc1cnc(Nc2ccccc2)nc1N1CCOCC1,1.5,4.8
O=C(Nc1cccc(F)c1)c1ccc(CNc2c(N3CCCCC3)c(=O)c2=O)cc1,0.96,-0.086
Cc1cc2c(cc1C)NC(c1ccccc1C(F)(F)F)C1=C(CC(C)(C)CC1=O)N2 (configuration not stated),0.99,-0.05
O=C(Nc1nn[nH]n1)c1cc(-c2ccccc2Cl)nc2ccccc12,0.8,-0.27
NS(=O)(=O)c1ccc(NC(=O)c2cc3c(s2)-c2ccccc2OC3)cc1,1.1,3
CCN(CC)CCCNC(=O)c1cc(-c2ccc(Br)cc2)on1,1.1,1.4
Cc1ccc(-c2cn(-c3ccc(F)c(F)c3)c(=O)[nH]2)cc1,0.99,-0.18
CCn1cc(C(=O)N(C)c2ccc(F)cc2)c2cc(OC)c(OC)cc2c1=O,1.1,2.2
CC1(C)CC(=O)c2cc(-c3ccccc3)n(-c3ccc(S(N)(=O)=O)cc3)c2C1,0.89,-4.4
CCC1CCCCN1S(=O)(=O)c1ccc2[nH]c(=O)cc(C(=O)NC(C)CCc3ccccc3)c2c1 (configuration not stated),0.92,-0.86
CCOC(=O)c1c(NC(=O)c2ccc(C(F)(F)F)cc2)sc2c1CCCC2,1.4,3.9
CCCCc1c(C)[nH]c2c(OC)cccc2c1=O,1.1,0.4
Cc1nc2ccccc2n1CCC(=O)Nc1cccc(F)c1,0.98,-0.39
COc1ccc(NC(=O)c2cccc3c2C(=O)N(C2CCCCC2)C3)c(OC)c1,0.86,-0.14
CCC(=O)NCCCc1nc2ccccc2n1C(C)C,1.1,1
CCCCNC(=O)c1cc(=O)[nH]c2ccc(S(=O)(=O)N3CCC(C)CC3)cc12,0.96,-0.36
O=C(CC(Sc1cccc2cccnc12)c1ccc(OC(F)F)cc1)c1ccco1 (configuration not stated),0.0051*,-3.9*
N#Cc1ccc(-c2nc(-c3cccc(C(F)(F)F)c3)no2)cc1,1.2,3.3
Cn1nc(-c2ccc(N3CCOCC3)c(NC(=O)c3ccccc3)c2)c2ccccc2c1=O,0.92,-2.2

An excerpt from above in order of count of non-hydrogen atoms, rising.
Compound,CBX7 inh,CBX7 inh z-score
CCCCc1c(C)[nH]c2c(OC)cccc2c1=O,1.1,0.4
O=C(Nc1nn[nH]n1)c1cc(-c2ccccc2Cl)nc2ccccc12,0.8,-0.27
CCn1cc(C(=O)N(C)c2ccc(F)cc2)c2cc(OC)c(OC)cc2c1=O,1.1,2.2
O=C(Nc1cccc(F)c1)c1ccc(CNc2c(N3CCCCC3)c(=O)c2=O)cc1,0.96,-0.086
Cn1nc(-c2ccc(N3CCOCC3)c(NC(=O)c3ccccc3)c2)c2ccccc2c1=O,0.92,-2.2
CCC1CCCCN1S(=O)(=O)c1ccc2[nH]c(=O)cc(C(=O)NC(C)CCc3ccccc3)c2c1 (configuration not stated),0.92,-0.86
